# Screens as filed in PubChem.
# Bead autofluor = counter-screen for toxin protease inhibitors: compound fluorescence | AID 624483 | fluorescence intensity (test concentration not listed) | 360,000 tested, 3.1% active | compound autofluorescence counterscreen, microsphere flow cytometry; hits give high values;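 active means at least 3 SD above the mean of all compounds, about 16000 in these data; inconclusive means too few beads counted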;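 further: 100 nL of 1 mM stock went into each well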
# Sa RN4220 lethal = growth inhibition of S. aureus RN4220, primary screen, OD600. 16 h. inhibition, % (concentration not given with the values). 330,000 tested, 0.33% active;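 active means z-score of -3 or lower and OD600 up to 0.18 on both plates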;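 further: plate controls were untreated cells for no effect and reference antibiotic for full effect; stock transfer was 100 nL into about 80 µL; one replicate is shown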
# PrP UTR inh = inhibition of PrP 5' UTR reporter expression | 340,000 tested, 0.35% active | cell-based PrP 5' UTR mRNA reporter, plate reader | inhibition, % (test concentration not listed);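 active means every replicate at 50% or more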;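 further: 0 = median of the neutral control wells; tested in H4 reporter cells; numbers are from one replicate; inactives centre near -14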
# BJeLR viability = MLPCN primary cell-based screen for lethality selective to Ras in HRASV12 cells | BJeLR (HRASV12) viability, CellTiter-Glo ATP luminescence, 48 h; reference of the scale not given here | inhibition, % (no concentration beside the values) | 300,000 tested, 0.17% active | AID 1554, 2009;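 active means replicate mean above 50%; inconclusive means above 50% but judged a plate artefact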;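 further: 50 nL library stock added to about 25 µL; numbers are from one replicate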
# Sa ugtP lethal = growth inhibition of ugtP-null S. aureus, primary screen, RN4220 ugtP deletion, OD600 | 16 h; some inactives read as strong as hits | growth inhibition, % (test concentration not listed) | 330,000 tested, 0.54% active | AID 1259309, 2017;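 active means z-score under -3 and OD600 up to 0.15 on both plates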;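 further: plate controls were untreated wells for no effect and antibiotic for full effect; wells of about 80 µL received 100 nL stock; the first replicate is given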
# Mtb hypoxia inh = PubChem AID 1159583; M. tuberculosis hypoxia-regulated fluorescent reporter, fluorescence; fluorescence inhibition, % (no concentration beside the values); 300,000 tested, 0.1% active;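 active means 35 to 45% if threefold the growth effect, above 45% if 1.5-fold the growth effect; inactive means the rest, general growth blockers included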;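 further: wells of about 50 µL received 100 nL stock; 0% = vehicle wells and 100% = reference inhibitor wells; whole bacteria with a GFP reporter of the hypoxia response; strong numbers were not always called active; many hits fall short of the cut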
# Mtb hypoxia inh growth = further read-out of Mtb hypoxia inh, marked with its call; growth inhibition, %; measured here: M. tuberculosis growth (absorbance);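 0% = vehicle and 100% = reference antibiotic; read after six days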
# Active calls of the source: *; ? = inconclusive; nt = no result given.
SMILES,Bead autofluor,Sa RN4220 lethal,PrP UTR inh,BJeLR viability,Sa ugtP lethal,Mtb hypoxia inh,Mtb hypoxia inh growth
CC(=O)c1cccc(NC(=S)N2CCN(S(=O)(=O)c3ccccc3)CC2)c1,?,2.4,-14,-1,-2,2,5
O=C(CN1C(=O)CC(c2ccccc2)=Nc2ccccc21)NCc1ccccc1,2455,8.0,-17,-1,5,7,2
O=C(CNc1cccc([N+](=O)[O-])c1)NC(=O)NC1CCCCC1,3517,0.0,-26,nt,1,3,6
Cc1cccc(NC(=O)c2cnn(-c3ccc(F)cc3)c2C2CCNCC2)c1C,3644,-1.4,-4,3,-3,-10,4
CC(C)C(=O)Nc1ccc2c(c1)nc(CCN1CCN(c3ccccn3)CC1)n2C,3970,4.4,-11,2,5,3,4
CSCCC(NC(N)=O)C(=O)NCc1ccc(Cl)cc1 (centres undefined),6892,1.6,-23,10,7,16,12
O=C(NCc1cc2ccccc2[nH]1)C1CCC(=O)N(CCCN2CCCC2=O)C1 (centres undefined),5831,0.5,1,-1,-1,-14,-6
COc1ccc(NC(=O)CC(=O)Nc2ccc(OC)cc2OC)c(OC)c1,8930,2.6,-9,-12,3,2,4
Cc1ccc(OC(=O)c2c(C)nn(-c3ccccc3)c2C)cc1,4237,0.5,-92,-5,7,8,4
CC(C)CNC(=O)C(=O)Nc1ccc2c(c1)N(S(=O)(=O)c1cccs1)CCC2,4256,4.7,-30,-4,-4,7,11
COc1ccc2occ(C(=O)c3cccs3)c2c1,24929*,8.9,-43,8,8,11,6
C#CC(CC)(CC)NC(=S)Nc1cccc(C(C)=O)c1,2548,9.1,-20,1,-10,-2,2
C=CCON1C(=O)C(=O)N(OCC=C)[C@H]2CCCC[C@H]21,6142,4.4,nt,-1,6,-4,-2
CCOc1ccccc1N(C(=O)CNC(=O)c1ccco1)C(C(=O)NC(C)(C)C)c1ccncc1 (centres undefined),3565,1.9,-1,-13,-1,2,3
OCCN1CCN(C(=S)c2ccc(-c3ccccc3)cc2)CC1,nt,5.0,-9,-9,5,-5,-2
O=C(Nc1cccc(NC(=O)c2ccco2)c1)c1cnccn1,23709*,0.0,-40,3,-3,0,2
C=CCNC(=O)c1onc(CSc2cccc(OC)c2)c1C(=O)O,3383,3.7,-19,3,-2,14,10
Cc1cc2[nH]c3c(c[n+](C)c4ccccc34)c2cc1C,2888,20,1,38,13,64*,28*
CCC(C)NCC(=O)Nc1sc2c(c1C(N)=O)CCC2 (centres undefined),3734,0.2,-13,6,-3,nt,nt
CCN(CC)CCCNc1oc(-c2cccc(Cl)c2)nc1C#N,10099,3.6,-25,8,2,5,9
CC(C)(C)OC(=O)C(Cc1ccccc1)NC(=O)c1nc[nH]c1C(=O)N1CCNCC1 (centres undefined),nt,7.7,nt,nt,10,9,0
CC1=C(C(=O)OCC(C)C)C(c2cc3c(cc2Br)OCO3)NC(=O)N1C (centres undefined),3089,10,-9,13,-12,7,15
Cc1nn(Cc2ccccc2)c2c1C(c1ccc(Cl)cc1)C(C#N)=C(N)O2 (centres undefined),5518,5.5,-20,9,9,7,-2
O=C(Nc1nc(-c2cc(F)ccc2F)cs1)C1=NN(c2ccccc2)C(=O)CC1,3494,15,-23,4,-1,3,4
Cc1ccc(C)c(C(=O)CCC(=O)NNC(=O)Cn2nc(C)cc2C)c1,11985,1.4,-29,-14,5,5,3
O=C(c1ccco1)N1CCC(n2nnc3ccccc32)CC1,4686,10.0,-22,-12,-8,13,12
Cc1c(C)n(CC(O)CN2CCOCC2)c2ccccc12 (centres undefined),7409,7.6,-12,0,4,4,5
O=C(CCc1ccccc1Cl)NC1CCCN(c2ccc(C(F)(F)F)cn2)C1 (centres undefined),4326,-4.6,6,2,-13,-2,-7
CCCCn1c(N)c(N(CCOC)C(=O)CCCc2nc3ccccc3c(=O)[nH]2)c(=O)[nH]c1=O,?,3.6,1,-5,7,1,-13
O=C(CSc1ccccc1Cl)c1ccco1,2449,15,-14,-1,87*,19,15

# Just Sa RN4220 lethal and Bead autofluor, for six of the compounds above:
Structure,Sa RN4220 lethal,Bead autofluor
CC(C)(C)OC(=O)C(Cc1ccccc1)NC(=O)c1nc[nH]c1C(=O)N1CCNCC1 (centres undefined),7.7,nt
CC1=C(C(=O)OCC(C)C)C(c2cc3c(cc2Br)OCO3)NC(=O)N1C (centres undefined),10,3089
Cc1nn(Cc2ccccc2)c2c1C(c1ccc(Cl)cc1)C(C#N)=C(N)O2 (centres undefined),5.5,5518
O=C(Nc1nc(-c2cc(F)ccc2F)cs1)C1=NN(c2ccccc2)C(=O)CC1,15,3494
Cc1ccc(C)c(C(=O)CCC(=O)NNC(=O)Cn2nc(C)cc2C)c1,1.4,11985
O=C(c1ccco1)N1CCC(n2nnc3ccccc32)CC1,10.0,4686

# Remaining list, next part
SMILES,Bead autofluor,Sa RN4220 lethal,PrP UTR inh,BJeLR viability,Sa ugtP lethal,Mtb hypoxia inh,Mtb hypoxia inh growth
Cc1ccc(S(=O)(=O)Nc2nc(C)cc(NN=Cc3ccc(O)cc3)n2)cc1,nt,7.9,nt,nt,4,-4,4
CC(OC(=O)C1CCCCC1)C(=O)Nc1cccc(Cl)c1 (centres undefined),4275,6.4,-17,7,6,19,12
CN(C)S(=O)(=O)c1cccc(NC(=O)CCc2nc3sc4c(c3c(=O)[nH]2)CCCC4)c1,2930,-4.2,-9,nt,33,-4,10
Cc1ccc(NC(=O)c2ccc(=O)n(CC(=O)Nc3ccccc3)n2)cc1,5634,1.4,-24,-3,10,11,2
CCCn1c(C2CC(=O)N(c3cc(OC)ccc3OC)C2)nc2ccccc21 (centres undefined),5135,5.6,-6,-2,0,-3,-2
Cc1c(NC(=O)CSc2nc3ccccc3c(=O)n2C(C)C)c(=O)n(-c2ccccc2)n1C,8912,-1.1,-6,nt,2,-3,0
CC1CCCCN1S(=O)(=O)c1ccc(C(=O)Nc2nnc(-c3ccccc3Cl)o2)cc1 (centres undefined),4747,98*,19,-5,98*,-5,14
COc1ccc(CCNC(=O)C2CC(=O)N(c3ccc(C(C)(C)C)cc3)C2)cc1OC (centres undefined),2872,1.7,-9,5,1,12,9
O=C(NNC(=O)c1ccc(O)cc1O)c1ccc(-c2ccccc2)cc1,3737,5.7,-1,5,8,14,2
COC(=O)c1cc(S(=O)(=O)N2CCCCC2)ccc1N1CCOCC1,6867,3.0,-13,2,1,-6,1
CCOC(=O)N1CCN(C(=O)Nc2cccc3ccccc23)CC1,4316,5.9,-110,-6,0,-5,-8
N#CC(c1ccccc1)c1ccc2c(C(F)(F)F)cc(C(F)(F)F)nc2n1 (centres undefined),3549,7.0,-17,14,12,20,14
O=C(C=Cc1ccccc1)NCCSc1ccc(Cl)cc1,nt,0.8,nt,nt,5,11,9
CC(C)c1ccc(-c2c(C#N)c(N)nc(SCC(=O)N3CCCCC3)c2C#N)cc1,10127,4.5,-12,-2,-1,8,10
CCN(CC)CCn1nc2c3c(cccc3c1=O)-c1ccccc1-2,2640,-2.9,-11,nt,20,7,-5
CCOC(=O)c1c(C)[nH]c(C)c1C(=O)COC(=O)c1cc(OC)c(OC)cc1OC,4834,2.1,-3,nt,2,-5,-5
Cc1ccccc1N1C(S)=C(C#N)C(=O)NC1c1ccco1 (centres undefined),3224,3.7,-20,4,2,-1,5
Clc1cccc(NCc2nnc(SCc3ccc(Cl)cc3Cl)o2)c1,3310,-11,-4,13,-20,10,2
CC(C)NC(=O)N1CCN(c2ccncc2S(=O)(=O)N2CCCCC2)CC1,5446,0.1,-24,-4,-5,-5,-3
COC(=O)CN1C(=S)N(c2ccc(OC)cc2)C(=O)C1CC(=O)Nc1ccc(F)cc1 (centres undefined),4766,3.8,-4,-15,-2,13,5

# As a short view, 2 of the compounds above.
SMILES,Bead autofluor,Sa RN4220 lethal,PrP UTR inh,BJeLR viability,Sa ugtP lethal,Mtb hypoxia inh,Mtb hypoxia inh growth
CCOC(=O)N1CCN(C(=O)Nc2cccc3ccccc23)CC1,4316,5.9,-110,-6,0,-5,-8
N#CC(c1ccccc1)c1ccc2c(C(F)(F)F)cc(C(F)(F)F)nc2n1 (centres undefined),3549,7.0,-17,14,12,20,14

# Continuation.
SMILES,Bead autofluor,Sa RN4220 lethal,PrP UTR inh,BJeLR viability,Sa ugtP lethal,Mtb hypoxia inh,Mtb hypoxia inh growth
Fc1ccc(CSc2ccc3nnc(-c4ccccn4)n3n2)cc1,3312,nt,-16,-1,nt,nt,nt
CCCCC1C(C#N)=C(C)NC2=C1C(=O)CC(C)(C)C2 (centres undefined),4694,0.1,-19,5,2,nt,nt
CCN1C(=O)[C@H]2[C@@H](c3ccc(-c4ccc5c(c4)OCO5)c(OC)c3)N[C@@](Cc3ccccc3)(C(=O)OC)[C@H]2C1=O,4166,nt,-7,-1,nt,nt,nt
COC(=O)c1ccc(N)c(N=CC2=C(O)CC(C)(C)CC2=O)c1,11855,0.3,-15,-14,-2,3,5
CCOC(=O)CC(=O)CSc1nc2c(c(-c3cccs3)c1C#N)CCC2,2039,-0.3,-22,-3,-3,0,-1
CC1(C)Cc2c(sc(NC(=O)COc3ccc(Cl)cc3Cl)c2C(N)=O)C(C)(C)N1,?,-3.9,-12,1,9,17,7
Cn1c(SCC2CCCCC2)nnc1-c1ccncc1,3838,-4.1,-17,5,5,4,7
O=C(Oc1cccnc1)c1cc2ccccc2oc1=O,5454,-3.3,-17,0,-3,nt,nt
Nc1cc2nsnc2cc1Br,3234,nt,-9,-8,nt,nt,nt
CCOc1ccc(-n2c(SCc3ccc([N+](=O)[O-])cc3)nnc2-c2ccc(OC)cc2)cc1,2585,nt,-28,-8,nt,nt,nt
CCNc1c(NC(=O)COc2ccc(Cl)cc2)c(=O)oc2ccccc12,?,4.8,-16,-5,3,2,-2
O=C(C1=NN[C@@H]2C(=O)N(Cc3ccccc3)C(=O)[C@H]12)c1ccc([N+](=O)[O-])cc1,4436,2.5,-20,8,-9,7,10
O=C(CSc1nc(O)cc(=O)n1-c1ccccc1)NCc1ccccc1,16693*,0.4,-19,-6,13,3,1
Cc1ccc(N2C(=O)c3ccccc3C2=O)nc1,3685,1.7,-15,6,4,9,-3
COc1ccc(C2=NOC(C(=O)Nc3ccc4c(c3)OCCO4)C2)c(OC)c1 (centres undefined),3641,-3.7,1,-1,20,3,7
CC1(C)Cc2nc3sc4c(NCCO)ncnc4c3cc2CS1,?,0.6,-30,2,7,-1,4
O=C1/C(=C\c2ccco2)SC(=S)N1c1ccccc1,2420,2.0,-31,-5,2,5,7
CC1CN(C(C)CO)C(=O)c2cccc(NS(=O)(=O)c3ccccc3)c2OC1CN(C)C (centres undefined),nt,5.1,nt,nt,3,21,7
CCN(CC)S(=O)(=O)c1ccc(N2CCCC2)c(NC(=O)c2ccc(OC)cc2OC)c1,4654,-0.9,-11,-8,6,13,-10
CN(C)S(=O)(=O)Nc1cc(Cl)cc(Cl)c1,3975,4.3,-6,6,-5,-3,-1
CC(C)c1nc2ccccn2c1NC1CCCCC1,3306,0.0,-12,-11,10,9,7
O=C(CN1C(=O)c2ccccc2C1=O)NCCc1c[nH]c2ccc(Cl)cc12,2623,7.0,-2,-7,-3,12,-1
O=C(NC1CCN(C(=O)NC2CCCCC2)CC1)c1cccc(F)c1,5134,-0.1,-13,7,13,4,6
COc1cccc(C(=O)C2=NN(C(C)=O)CC2c2ccco2)c1 (centres undefined),3261,-0.8,-12,-4,-5,6,4
CCOC(=O)CNC(=O)C12CC3CC(CC(C3)C1)C2,3189,2.7,-25,-4,0,6,3
Cc1ccc(S(=O)(=O)Nc2csc(C)c2C(=O)O)cc1,nt,3.0,-1,-2,3,2,-1
N#CCC(=O)NN1Cc2ccccc2C1=N,2242,0.9,-21,-2,0,-1,-4
O=C(CCCc1c[nH]c2ccccc12)N1CCCCCC1,3954,2.2,-36,6,-2,17,15
Cn1c(=O)c2c(ncn2CC(=O)Nc2nc(-c3ccccc3Cl)cs2)n(C)c1=O,5439,-4.5,-15,6,-12,-10,3
CC(C)c1ccccc1OCC(O)CN1CCN(S(=O)(=O)c2ccc([N+](=O)[O-])cc2)CC1 (centres undefined),2910,14,0,0,3,4,11
CS(=O)(=O)N1CCN(c2ccccc2NC(=O)Cc2ccc(Cl)cc2)CC1,2355,9.5,-4,3,-4,2,5
COc1ccc(CSc2nnnn2Cc2ccccc2)cc1OC,9800,6.8,-9,0,7,3,4
CSc1nc(O)c(Nc2cccc(Cl)c2)c(=O)[nH]1,3017,nt,6,9,nt,nt,nt
COc1ccc(N/C=C(\C#N)c2ccc(OCCCF)cc2)cc1,4621,5.9,-29,4,4,-2,-2
COc1ccc(C2CC(c3ccc(Cl)c(Cl)c3)Nc3nc(N)nn32)cc1 (centres undefined),4660,1.1,-5,4,-1,nt,nt
